Bioassay records from PubChem BioAssay.
BJeLR lethal: BJeLR cell viability loss. actives 0.17% (n = 300,000). inhibition, % (no concentration beside the values). BJeLR (HRASV12) viability, CellTiter-Glo ATP luminescence, 48 h; reference of the scale not given here;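 active = replicate mean above 50%; inconclusive = above 50% but judged a plate artefact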;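 also: 50 nL library stock added to about 25 µL; numbers are from one replicate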
RN4220 kill: kills Staphylococcus aureus RN4220. S. aureus RN4220 growth, OD600, 16 h. inhibition, % (no concentration beside the values). actives 0.33% (n = 330,000);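 active = z-score of -3 or lower and OD600 up to 0.18 on both plates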;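 also: plate controls were untreated cells for no effect and reference antibiotic for full effect; stock transfer was 100 nL into about 80 µL; one replicate is shown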
PrP UTR inh: inhibition of PrP 5' UTR reporter expression | cell-based PrP 5' UTR mRNA reporter, plate reader | inhibition, % (no concentration beside the values) | actives 0.35% (n = 340,000) | AID 488862;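 active = every replicate at 50% or more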;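 also: 0 = median of the neutral control wells; tested in H4 reporter cells; numbers are from one replicate; inactives centre near -14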
Mtb hypoxia inh: inhibitors of hypoxia-regulated fluorescent reporter in Mycobacterium tuberculosis; M. tuberculosis hypoxia-regulated fluorescent reporter, fluorescence; fluorescence inhibition, % (test concentration not listed); actives 0.1% (n = 300,000); AID 1159583;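 active = 35 to 45% if threefold the growth effect, above 45% if 1.5-fold the growth effect; inactive = the rest, general growth blockers included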;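 also: wells of about 50 µL received 100 nL stock; 0% = vehicle wells and 100% = reference inhibitor wells; whole bacteria with a GFP reporter of the hypoxia response; strong numbers were not always called active; many hits fall short of the cut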
Bead autofluor: counter-screen for toxin protease inhibitors: compound fluorescence. compound autofluorescence counterscreen, microsphere flow cytometry; active compounds read high. fluorescence intensity (concentration not given with the values). actives 3.1% (n = 360,000). AID 624483;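 active = at least 3 SD above the mean of all compounds, about 16000 in these data; inconclusive = too few beads counted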;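 also: 100 nL of 1 mM stock went into each well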
ugtP null kill: kills S. aureus RN4220 lacking UgtP. S. aureus RN4220 ugtP deletion, OD600 growth, 16 h; some inactives read as strong as hits. growth inhibition, % (test concentration not listed). actives 0.54% (n = 330,000). AID 1259309;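 active = z-score under -3 and OD600 up to 0.15 on both plates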;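 also: plate controls were untreated wells for no effect and antibiotic for full effect; wells of about 80 µL received 100 nL stock; the first replicate is given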
Mtb hypoxia inh growth: second read-out of Mtb hypoxia inh, no call of its own (marks repeat the call); growth inhibition, %; measured here: M. tuberculosis growth (absorbance);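 0% = vehicle and 100% = reference antibiotic; read after six days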
An asterisk follows results filed as active; ? = inconclusive; · = not tested or not shown.

Values in the order: RN4220 kill	BJeLR lethal	Mtb hypoxia inh growth	Bead autofluor	ugtP null kill	PrP UTR inh	Mtb hypoxia inh
Cc1cc(NC(=O)c2nn3cccnc3c2Cl)no1
 : 7.6	-7	6	21821*	0	-78	8
Cc1cccc(OCc2nnc(NC(=O)c3cccs3)s2)c1
 : 1.1	-6	14	5676	-9	-3	3
CCC(=O)Nc1ccc(NC(=S)NC(=O)/C=C/c2ccccc2)cc1
 : 5.1	-11	2	2013	42	-17	-1
O=C(NCc1ccco1)/C(=C\c1ccco1)NC(=O)c1ccc(Br)o1
 : 1.8	4	5	2651	-1	-7	9
COc1ccc(NC(=O)COC(=O)C2CCC(C(C)(C)C)CC2)c([N+](=O)[O-])c1 (configuration not stated)
 : -0.1	-6	9	2384	3	-5	15
COc1ccc(NC(=S)N(CCCN2CCCC2)Cc2cccn2Cc2ccc(Cl)cc2)cc1Cl
 : -6.3	-9	18	4517	3	-8	13
COc1ccc(S(=O)(=O)N2CCN(CC(=O)NCCc3cccs3)CC2)cc1
 : 3.3	·	3	4948	5	-2	2
C=C(C)CC1N(c2cccc(OC)c2)C(=O)[C@@H]2C(C(=O)O)[C@H]3C=C[C@@]12O3 (some centres not stated)
 : -1.7	2	12	4115	-5	-6	15
O=S1(=O)CCOCC(CC2CCCCC2)N1Cc1ccccc1 (configuration not stated)
 : 5.7	·	14	·	9	·	5
Cc1ccc(S(=O)(=O)NNC(=O)c2cnn(-c3ccccc3)c2C(F)(F)F)cc1
 : 2.9	-1	1	4248	1	-16	-3
COc1cc(-c2nc(-c3ccc4c(c3)-c3ccccc3S4(=O)=O)c(-c3ccccc3)[nH]2)cc(OC)c1O
 : -10	-1	19	9534	-36	-27	1
C=CCOc1cccc(C2C(C(=O)c3ccco3)=C(O)C(=O)N2CCN(CC)CC)c1 (configuration not stated)
 : 2.1	-12	4	3989	4	-9	3
CCN(CC)S(=O)(=O)c1cccc(C(=O)N[C@H](C(=O)Nc2nc3ccccc3s2)C(C)C)c1
 : 3.6	3	7	10008	2	-54	14
CCc1ccc(NC(=O)Cn2cc([N+](=O)[O-])nc2C)cc1
 : -1.4	0	-3	3577	1	-6	-1
COc1ccc(C(C(=O)NC2CCCCC2)N(C(=O)CCl)c2ccc(C)cc2)cc1 (configuration not stated)
 : 7.4	135*	8	2550	1	-1	2
O=C(CSCc1ccccc1)Nc1ccc(S(=O)(=O)N2CCOCC2)cc1
 : -8.6	-5	14	2948	-1	-12	13
C/C(CC(C)C)=N\NC(=O)Nc1ccccc1
 : ·	-2	·	8726	·	-14	·
O=C(NCc1cn(-c2ccccc2)nc1-c1ccc(F)cc1)c1cccc([N+](=O)[O-])c1
 : 0.1	0	9	2031	-2	-2	4
Cc1c(NC(=O)c2ccc(Br)o2)c(=O)n(-c2ccccc2)n1C
 : 4.4	-11	8	4136	2	-39	7
CCOCc1cc(CN2CCCC(CNC(=O)c3ccco3)C2)ccc1OC (configuration not stated)
 : -1.6	-5	7	5873	3	-16	3
O=C(NNC1=NCCC1)c1ccc(Br)cc1
 : 6.5	-1	·	2481	14	-17	·
O=[N+]([O-])c1ccccc1S(=O)(=O)N(CC1CO1)c1ccccc1 (configuration not stated)
 : 4.3	7	8	4084	3	2	11
CC(C)(C)c1ccc(OC(=O)c2ccc(-n3cncn3)nc2)cc1
 : -1.0	0	1	·	9	·	9
O=C(NCc1ccco1)c1cccc(Br)c1
 : 5.2	-6	11	3917	5	-21	12
Cc1ccc(NC(=O)Nc2cccc([N+](=O)[O-])c2)nc1
 : 3.4	-7	5	4583	-10	-83	16
COc1ccc(CNC(=O)CCc2nc3cc(S(=O)(=O)N(C)C)ccc3n2C)cc1OC
 : 2.5	-33	6	4277	6	-19	-9
O=C(CSc1nnc(-c2ccncc2)n1-c1ccc(Cl)cc1)N1CCOCC1
 : 3.5	0	9	8463	11	-22	11
CCOc1ccc(NC(=S)NC(=O)c2cnn(CC)c2)c([N+](=O)[O-])c1
 : 3.5	-6	14	5349	85*	-16	2
COc1ccc(-c2ccc(F)cc2)cc1C1C2C=CCC(C)C2C(=O)N1Cc1ccccc1 (configuration not stated)
 : -8.5	·	4	·	-4	·	8
CCN(CCNC(=O)CN(C)S(=O)(=O)c1cccc2nsnc12)c1ccccc1
 : 8.0	-3	5	10714	3	-5	4
O=C(Nc1cccc([N+](=O)[O-])c1)C(=O)N1CCCCC1
 : 2.5	-5	-4	2448	3	-70	0
COc1ccc(C(=O)NNC(=S)NC(=O)c2ccc(Br)o2)cc1OC
 : 9.4	8	1	4375	34	-12	2
CCS(=O)(=O)N1N=C(c2ccccc2)CC1c1ccc2nccnc2c1 (configuration not stated)
 : 6.1	-7	4	11478	-4	-23	8
Cc1ccc(Cn2cnc3c(nnn3Cc3ccc(Cl)cc3)c2=O)cc1
 : -7.0	-3	9	11235	13	6	1
C#CCOCCOCCOCCNc1nc(N2CCN(C(=O)[C@H]([C@@H](C)CC)n3cc(CCC(=O)O)nn3)CC2)nc(N2CCN(C(=O)[C@H](C)n3cc(CCCN=C(N)N)nn3)CC2)n1
 : ·	5	·	3964	·	-30	·
CC(C)Cn1c(-c2ccccc2)nc(=S)c2c1CCCC2
 : 4.8	-9	·	4380	1	4	·
COc1cc(OC)cc(C(=O)NCC(=O)NCc2ccccn2)c1
 : 2.3	·	8	5023	7	·	6
O=C(Nc1ccccc1C(=O)N1CCCC1)c1cccc(S(=O)(=O)N2CCCCCC2)c1
 : 7.4	-2	7	3134	5	1	14
O=C(/C=C/c1ccc(Br)o1)NCCCN1CCOCC1
 : 6.7	-5	12	3455	3	-13	13
CC(CCc1ccccc1)NS(=O)(=O)c1ccccc1 (configuration not stated)
 : 5.9	-1	·	4072	2	-15	·
Clc1ccc(NCc2cccnc2)cc1
 : 3.9	4	5	4267	20	·	16
CC(C)N1CC(C(=O)Nc2ccc(Br)c(Cl)c2)CC1=O (configuration not stated)
 : 4.0	12	10	4065	-9	-17	12
O=C(Cc1ccccc1)Nc1ccc(SC(F)F)cc1
 : -1.3	2	-12	2109	2	-100	-9
CNC[C@@H]1Oc2c(NC(=O)Nc3ccc(F)cc3)cccc2C(=O)N([C@H](C)CO)C[C@@H]1C
 : -18	·	10	3685	-12	-41	0
O=C(CCS(=O)(=O)c1cccc2nsnc12)NCc1ccccc1
 : 5.3	8	2	9490	1	-4	4

Quoted from the listing:
Cc1ccc(Cn2cnc3c(nnn3Cc3ccc(Cl)cc3)c2=O)cc1 | ugtP null kill: 13
CC(CCc1ccccc1)NS(=O)(=O)c1ccccc1 (configuration not stated) | Bead autofluor: 4072
O=C(Nc1cccc([N+](=O)[O-])c1)C(=O)N1CCCCC1 | Mtb hypoxia inh: 0

(listing goes on)
Values in the order: RN4220 kill	BJeLR lethal	Mtb hypoxia inh growth	Bead autofluor	ugtP null kill	PrP UTR inh	Mtb hypoxia inh
CC1=C(C(=O)NC(C)CCc2ccccc2)C2(CCC(C)CC2)OC1=O (configuration not stated)
 : 1.8	-9	-7	2626	9	-10	-7
CCOc1ccc(S(=O)(=O)N2CCN(C(=O)c3cc(S(=O)(=O)N4CCOCC4)ccc3C)CC2)cc1
 : 1.2	·	-10	·	18	-13	4
CC(C)(C)c1ccc(-c2nnc(NC(=O)c3ccccc3)s2)cc1
 : 0.1	-1	0	8715	-9	-58	0
CN(CC(=O)Nc1ncn[nH]1)S(=O)(=O)c1ccc(Cl)cc1
 : 0.8	6	6	3652	10	-13	5
Cc1ccccc1C1CC(c2ccccc2OC(F)F)Nc2ncnn21 (configuration not stated)
 : 4.0	16	-7	3540	-4	-12	3
COc1ccc(NC(=S)Nc2cc(C(F)(F)F)ccc2F)cc1
 : 0.6	-3	-1	4300	-3	-14	14
O=C(Cn1cc2c(n1)CCCC2)NCC1CCCO1 (configuration not stated)
 : 2.3	0	·	6069	7	10	·
O=C(Cn1nnc(-c2ccccc2)n1)NNC(=O)c1ccccc1
 : 3.0	6	-4	3321	-76	0	17
CC1Cc2ccccc2N1C(=O)CN(C)CC(=O)Nc1ccc(F)cc1 (configuration not stated)
 : -5.3	·	11	3838	-3	-13	2
CCC1(C)Cc2c(sc3nnn(CC(=O)Nc4cccc5ccccc45)c(=O)c23)CO1 (configuration not stated)
 : 3.3	-7	-1	7823	-7	-14	5
O=C1NC2(NN1c1ccccc1)C1CC3CC(C1)CC2C3 (configuration not stated)
 : -3.5	-2	4	3412	-4	0	1
Cc1oc(-c2ccc(Cl)cc2)nc1CN1CCCC(C(=O)NC2CC2)C1 (configuration not stated)
 : -0.6	-4	9	4462	3	6	8
Cn1[nH]c(=O)c(Cl)c(Cl)c1=O
 : -0.5	5	·	4786	11	-34	·
Cc1n[nH]c(C)c1S(=O)(=O)N1CCCC(C(=O)Nc2nccs2)C1 (configuration not stated)
 : 2.3	-4	·	3516	-1	-24	·
CCCCCCCC(=O)OCC(COC(=O)CCCCCCC)OC(=O)CCCCCCC
 : 4.6	·	8	5206	9	-6	12
CCOc1cc(/C=N/NC(=O)COc2cccc(C)c2)ccc1OC(=O)c1cccs1
 : ·	9	·	9078	·	-26	·
Oc1ccccc1-c1nnc(COc2ccccc2)o1
 : 9.1	-5	·	5947	-13	-45	·
O=C(Nc1ccc(-c2ccc([N+](=O)[O-])cc2)cc1)c1ccccc1F
 : 9.9	3	4	4018	15	-37	11
COc1cccc(NC(=O)CN(C)C(=O)c2cc(S(=O)(=O)N3CCCCCC3)ccc2OC)c1
 : -0.1	·	2	3581	-1	-22	-3
COc1ccccc1NC(=O)/C=C/c1ccc(OC)c(S(=O)(=O)N2CCOCC2)c1
 : 15	1	5	3919	4	0	11
CN1CCC(N(C)S(=O)(=O)c2ccc(F)cc2F)CC1
 : -2.3	-4	-8	3607	-1	-40	-12
O=C(Nc1ccc(C(=O)N2CCOCC2)cc1)c1ccc([N+](=O)[O-])cc1
 : 3.8	2	5	5654	10	-11	7
O=C(Nc1cnn(Cc2ccc(Cl)c(Cl)c2)c1)C12CC3CC(CC(C3)C1)C2
 : -11	-9	4	10774	-19	-15	0
COc1ccccc1C(=O)NCC1(c2ccccc2)CCCC1
 : 2.4	6	-6	4421	0	-10	11
COc1cc(OC)c2ccc(=O)oc2c1C(CC(=O)N1CCCC1)c1ccc2c(c1)OCO2 (configuration not stated)
 : 4.9	-5	2	4531	4	-28	4
Cc1cc(=O)oc2cc(OCC(=O)NCCCn3ccnc3)ccc12
 : -0.1	6	-8	4273	9	-5	6
COc1cccc(NC(=O)CN(C)C(=O)c2c(C)nn(CC(C)C)c2Cl)c1
 : 0.3	·	11	3994	4	-16	9
COc1ccc(CN2C(=O)NC(=O)/C(=C\c3cc(OC)c(OC)c(OC)c3)C2=O)cc1
 : 1.1	-4	0	3429	1	6	10
Cc1ccc(NC(=S)NCCO)c(C)c1
 : 2.5	-5	·	4608	3	-16	·
CCCCS(=O)(=O)N1C2=NC(C(=O)OC)=C(C(=O)OC)[C@@H]3N(C)c4ccc(OC)cc4[C@]23C[C@H]1C(=O)OC
 : ·	-12	·	3760	·	-1	·
Cc1ccc(CNC(=O)c2ccc3c(c2)S(=O)(=O)c2ccccc2C3=O)o1
 : 12	2	18	3889	11	-17	20
O=C(NNC(=O)c1ccccc1Br)c1ccccc1Cl
 : 0.2	18	12	4514	-3	-32	1
COCCNc1nc(N)c([N+](=O)[O-])c(Nc2ccc(F)cc2)n1
 : -2.7	-2	8	3377	1	-8	15
COc1ccc(NCC(=O)N/N=C/C=C\c2ccccc2)cc1
 : ·	-10	·	7085	·	-17	·
O=C(CNC(=O)c1ccncc1)N/N=C/c1cccc([N+](=O)[O-])c1
 : ·	1	·	2153	·	-4	·
COc1cc(Cl)c(C)cc1NC(=O)CN1C(=O)C2CC=CCC2C1=O (configuration not stated)
 : 2.4	·	-3	?	-3	1	-2
Cc1[nH]n(C(C)(C)C)c(=O)c1Sc1ccccc1
 : 2.2	4	8	5232	2	-29	6

An unsorted share of the library; overall some 4% were active at least once.
